Assay outcomes: PubChem, National Center for Advancing Translational Sciences (NCATS)
CtBP-E1A inh: blocks the CtBP interaction with E1A. AlphaScreen GST-E1A/His-CtBP binding, 1536-well; hits give low values; control for the full effect not named in the record. activity change, % (no concentration beside the values). 340,000 compounds, 0.49% hits. AID 651724; in the data active means activity change below about -65%; inconclusive means about -30% to -65%; inactive means above about -30%; also: % is scaled to controls: 0 for no effect and ±100 for the full control effect
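In 5 uL wells, 23 nL compound meets equimolar GST-E1A and His-CtBP (5X stock 125 nM each) for 2 h, 37 °C. Beads (5X, 50 ug/mL) then 1 h, 37 °C, dark.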
TRPML1 agonist: human mucolipin-1 channel agonism; TRPML1-expressing cells, Ca2+ dye fluorescence, FDSS; host cell line not named in the record; reference of the full effect not given here; 410,000 compounds, 0.12% hits; Q9GZU1; activation, % (no concentration beside the values); in the data active = activation above about 50%; inconclusive = about 30% to 50%; inactive = below about 30%; also: 0% is about no effect; the text of the record puts the active cut at 80%
Target sequence (Q9GZU1 whole entry, looked up): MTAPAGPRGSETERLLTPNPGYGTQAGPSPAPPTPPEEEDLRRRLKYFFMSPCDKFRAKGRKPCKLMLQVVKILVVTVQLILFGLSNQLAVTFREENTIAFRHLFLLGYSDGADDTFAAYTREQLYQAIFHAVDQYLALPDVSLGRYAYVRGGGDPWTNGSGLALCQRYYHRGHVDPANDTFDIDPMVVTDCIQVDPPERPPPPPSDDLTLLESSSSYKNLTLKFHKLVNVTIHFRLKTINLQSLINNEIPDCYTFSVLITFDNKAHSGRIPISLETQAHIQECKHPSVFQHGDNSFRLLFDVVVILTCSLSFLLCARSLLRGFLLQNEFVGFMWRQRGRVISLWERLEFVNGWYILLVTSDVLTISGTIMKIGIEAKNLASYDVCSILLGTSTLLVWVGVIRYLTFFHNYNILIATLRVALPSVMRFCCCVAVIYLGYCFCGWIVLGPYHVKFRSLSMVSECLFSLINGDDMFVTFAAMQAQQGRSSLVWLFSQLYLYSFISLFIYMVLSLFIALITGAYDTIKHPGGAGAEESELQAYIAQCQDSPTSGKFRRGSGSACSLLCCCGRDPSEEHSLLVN
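Cells: TRPML1-DL, 1X Tet inducer, ~16 h at 37 degrees C/5% CO2. Dye: ABD Ca8 no-wash + quencher, 45-90 min RT. Read: 10 s baseline, compound add, 110 s agonist phase; 54-4 EC80 (4uM final), 110 s antagonist phase.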
PINK1 modulator: modulators of PINK1 expression; PINK1 immunofluorescence, high-content cytometry, 24 h; Potency, µM (top dose mostly 76.6 µM), for inactives: at the highest dose activation (PINK1 increase), usual class: activators; 410,000 compounds, 0.2% hits; AID 624263; active = well fitted activation curve with a large enough effect; inconclusive = small, poorly fitted or top-dose-only effect; inactive = flat fitted curve, though single readings scatter; cell line not stated here;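 also: potency is read from the fitted curve at half-maximal effect; % of control where 0% means no effect; nearly all actives have a fitted effect of over 65% in size; a mitochondrial uncoupler was the plate control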
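Readout is PINK1 immunofluorescence, quantified alongside mitochondrial, cell and nuclear markers by laser-scanning microplate cytometry. Cells from a stable line were exposed to compound titrations (5 concentrations) for 24 hours, with CCCP controls.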
TRPML1 inh: inhibitors of human TRPML1 channel; Q9GZU1; TRPML1-inducible cells, Ca2+ dye fluorescence, FDSS; hits give low values; inhibition of EC80 agonist-evoked calcium signal; activity change, negative = inhibition, % (test concentration not listed); 390,000 compounds, 0.02% hits; in the data active means activity change below about -50%; inconclusive means about -30% to -50%; inactive means above about -30%;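 also: stimulus is agonist 54-4 at its EC80 concentration; % is scaled to controls: 0 for no effect and ±100 for the full control effect; compound concentration not given in the record; the text of the record puts the active cut at -80%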
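Tet-induced TRPML1-DL cells loaded with Ca8 no-wash calcium dye were read kinetically on FDSS. Compound addition was followed by EC80 agonist 54-4 (4 uM final); inhibition was read over 110 s.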
D2 agonist: agonists of human D2 dopamine receptor (beta-arrestin); P14416; DiscoveRx PathHunter D2 beta-arrestin, luminescence, 90 min; 100% = 57 uM dopamine signal; activation, % (concentration not given with the values); 360,000 compounds, 0.084% hits; AID 624465; in the data active = activation above about 40%; inconclusive = about 15% to 40%; inactive = below about 15%; also: the text of the record calls up to 30% inactive
Target sequence (P14416 whole entry, looked up): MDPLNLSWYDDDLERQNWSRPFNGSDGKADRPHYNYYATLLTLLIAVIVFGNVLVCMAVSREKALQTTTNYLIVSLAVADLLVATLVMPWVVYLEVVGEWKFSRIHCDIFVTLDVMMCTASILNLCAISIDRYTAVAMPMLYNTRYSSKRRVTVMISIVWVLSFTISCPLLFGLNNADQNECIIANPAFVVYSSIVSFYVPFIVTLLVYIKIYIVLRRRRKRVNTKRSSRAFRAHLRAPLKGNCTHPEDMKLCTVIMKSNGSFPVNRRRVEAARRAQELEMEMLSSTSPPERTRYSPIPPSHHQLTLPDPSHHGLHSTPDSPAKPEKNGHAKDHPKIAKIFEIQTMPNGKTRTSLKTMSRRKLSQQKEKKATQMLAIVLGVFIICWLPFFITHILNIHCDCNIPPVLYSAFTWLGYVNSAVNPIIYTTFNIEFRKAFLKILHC
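Agonist mode: compounds alone added to overnight-plated D2 PathHunter cells for 90 min at 37 C, with 57 uM final dopamine (EC100) defining full response. Beta-arrestin recruitment detected by chemiluminescent reagent, read after 1 h at ambient temperature.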
Six1-Eya2 inh: blocks human Six1 binding to Eya2; Q15475+O00167; AlphaScreen GST-Six1/His-Eya2 binding, biochemical; hits give low values; control for the full effect not named in the record; activity change, % (concentration not given with the values); 360,000 compounds, 0.56% hits; AID 651725; in the data active = activity change below about -65%; inconclusive = about -30% to -65%; inactive = above about -30%; also: % is scaled to controls: 0 for no effect and ±100 for the full control effect
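AlphaScreen with GST-Six1 and His-Eya2 (5X mix: 250 nM and 500 nM), glutathione donor and nickel acceptor beads; buffer 50 mM Tris pH 8.0, 300 mM NaCl, 1 mM TCEP; 1 h at 37 C in the dark.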
* hit, by the source's call; ? = inconclusive; . = not tested or not shown; [ ] = another dose, or the depositor's remark.

molecule,CtBP-E1A inh,TRPML1 agonist,PINK1 modulator,TRPML1 inh,D2 agonist,Six1-Eya2 inh
COc1ccc(C(=O)N2CCCC(c3nc(-c4cccs4)no3)C2)cc1 (configuration not stated),-14.7,1.0,?,12.6,-1.1,-9.4
CCOc1ccccc1NC(=O)CSc1nnc(Cc2ccc(OC)cc2)c(=O)n1N,-2.4,1.3,3.3%,4.4,-8.1,-6.7
CC1=C(C(=O)Nc2ccc(C)cc2C)C(c2cccs2)NC(=S)N1 (configuration not stated),1.5,0.4,11.4%[38.3 µM],-14.7,-1.8,1.4
CCCCn1c(N)c(N(Cc2ccccc2OC)C(=O)CC2OC(=O)c3ccccc32)c(=O)[nH]c1=O (configuration not stated),13.2,0.0,1.0%,7.0,-6.9,2.2
Cc1ccccc1CSCCNS(C)(=O)=O,0.8,0.4,-2.1%[38.3 µM],27.5,-2.2,3.3
Cc1ccc(-c2cnc3n2CCCCC3)cc1,.,2.6,2.6%,-6.1,1.0,-23.7
C/C(=C\C(=O)Nc1cscc1C)C(=O)O,5.6,0.0,0.4%,45.9,-1.5,7.7
COc1ccc(C(C(=O)NC(C)(C)C)N(CC2CCCO2)C(=O)CCC(=O)Nc2cc(C)on2)cc1 (configuration not stated),6.5,-0.1,-0.7%,-8.9,1.5,4.5
CCOc1ccc(S(=O)(=O)NCCC(=O)N2CC=C(c3ccccc3)CC2)cc1,-4.5,2.8,-1.8%,15.6,-1.1,-1.4
O=C(CCc1nc2ccccc2c(=O)[nH]1)N1CCCc2ccccc21,-4.1,2.2,1.9%,-6.2,-5.5,-9.8
Cc1ccc(S(=O)(=O)N2CCC[C@H]2C(=O)OCC(=O)c2ccc3c(c2)NC(=O)CO3)cc1,-12.1,.,0.7%,.,2.1,0.4
O=S(=O)(Nc1ccc(-c2ccc3nncn3n2)cc1)c1cccs1,-9.7,0.1,13.5%,15.5,-2.6,-4.0
Nc1nnc(CSc2ccc(Cl)cc2)s1,3.2,0.0,-0.4%,16.2,2.6,0.8
O=C(Nc1ccc2c(c1)OCCO2)C1CCN(S(=O)(=O)c2ccccc2)CC1,-9.2,1.5,1.1%,7.0,-3.4,-10.6
C=CCn1c(NCc2ccccc2O)nc2ccccc21,4.4,0.0,1.6%,20.4,-0.9,-8.6
CCN(CC)S(=O)(=O)c1cccc(-c2nnc(SC(C)C(=O)NCCC3=CCCCC3)o2)c1 (configuration not stated),0.3,1.6,1.9%[38.3 µM],53.1,-2.2,3.0
O=C(N/N=C/c1ccccc1C(F)(F)F)c1ccc(O)cc1,0.0,1.3,-0.7%,-18.0,7.2,-6.5
Cc1cccc(N2CCN(C(=O)c3ccncc3)CC2)c1C,-0.5,-1.2,6.1%,1.9,-1.6,1.1
Cc1ccc(C(=O)COC(=O)c2cccc(N3C(=O)c4c(C)nc5ccccc5c4C3=O)c2)cc1C,-0.3,-0.8,2.1%,5.3,2.2,-9.3
Cc1ccc(O)c(C(CC(=O)NC2CCCCC2)c2ccccc2)c1 (configuration not stated),-2.9,1.1,-0.1%,-11.8,-2.5,-5.9
COc1cccc(/C=N/NC(=O)c2ccc([N+](=O)[O-])cc2Cl)c1O,-87.8*,0.1,1.3%,-8.0,3.7,-89.4*
COc1ccc(CC(=O)NNC(=O)[C@@H]2CCCC[C@@H]2C(=O)O)cc1,-1.7,-0.4,1.6%,7.0,-5.0,-5.2
O=C(Nc1c2c(nn1-c1ccc(Cl)cc1)CS(=O)(=O)C2)C1CC1,10.9,1.2,0.2%,-14.2,-4.1,3.1
NC(=O)C1CCN(C(=O)CCC(=O)c2ccc(Br)cc2)CC1,-1.8,0.9,2.3%,32.8,2.5,-0.8
CC(=O)N(Cc1cccs1)C1CCOC(C)(C)C1 (configuration not stated),0.4,-1.0,3.0%,-14.5,-1.0,1.7
Cc1ccc2nc(-c3ccccn3)cc(C(=O)NC(C)C(C)(C)C)c2c1 (configuration not stated),4.8,0.5,8.8%,3.4,-2.6,-2.1
CCC(C)(C)NC(=O)CN(C(=O)CCC(=O)Nc1ccccn1)c1ccc2c(c1)OCO2,-4.7,0.7,5.3%,-0.6,-1.8,4.3
Cn1c(Cl)cnc1C(O)(c1ccccc1)c1ccccc1,5.4,1.0,-0.4%,-7.5,-2.4,-4.1
C#CCOCCOCCOCCNc1nc(N2CCN(C(=O)CCCCCCCCCCNC(=O)[C@H](CCCCN)n3cc(C[C@@H](C)CC)nn3)CC2)nc(N2CCN(C(=O)CCCCCCCCCCNC(=O)[C@H](CCCCN)n3cc(C[C@@H](C)CC)nn3)CC2)n1,-12.3,0.4,-2.2%,16.2,2.3,-2.8
CCOC(=O)Cc1nnc(NC(=O)C(CC)Sc2nc(C)cc(=O)[nH]2)s1 (configuration not stated),-13.8,1.4,1.5%,7.2,-4.5,-11.9
O=C(O)c1cc2[nH]c3c(c2cc1Cl)CCCC3,-0.5,0.0,0.3%,-2.8,0.3,3.0
Cc1cc(C)cc(NC(=O)Nc2ccc(S(=O)(=O)Nc3cc(C)on3)cc2)c1,8.0,0.8,-0.2%,-4.1,-3.4,1.1
Cc1ccsc1/C=C(\C#N)C(=O)NC1CCS(=O)(=O)C1 (configuration not stated),-4.1,1.0,1.0%,-28.0,0.4,9.3
O=C(NCc1ccncc1)Nc1ccccc1,13.8,-0.2,-0.4%,-0.4,-0.5,-1.9
Cc1nc(CC(=O)c2ccc(O)cc2O)cs1,1.9,-1.0,-1.2%,9.7,-4.8,3.7
COc1ccc(OC)c(NC(=O)C2CCCNC2=O)c1 (configuration not stated),-6.9,-0.5,-0.8%[38.3 µM],-15.7,-0.6,-1.3
Cc1cccc(Nc2nc(N3CCCC3)nc(N3CCCC3)n2)c1,-2.6,-0.5,10.5%[38.3 µM],22.0,-2.6,4.1
O=C(Nc1ccc(Cl)cc1)NC1CCCc2ccccc21 (configuration not stated),1.4,0.7,5.3%,-6.2,6.7,12.5
O=C1CCC[C@@H]2C=C[C@H](c3ccc(Br)cc3)[C@H]3CCN1[C@@H]32,-2.5,-0.7,1.4%,.,.,3.3
CC(C=NNC(=O)C(=O)NN=CC(C)=Cc1ccccc1)=Cc1ccccc1,-4.7,-0.4,9.0%,-6.7,-1.5,-2.3
Cc1ccc(Cl)cc1N1CCN(S(=O)(=O)c2ccc(-c3ccc(=O)[nH]n3)o2)CC1,-2.0,-0.3,0.5%,2.7,-2.0,-1.9
CS(=O)(=O)N1CCN(C(=O)NC2CCCCC2)CC1,1.1,-0.1,0.3%,-29.5,-3.1,-0.2
Cc1cccc2sc(NC(=O)CCNS(=O)(=O)c3cccc4nonc34)nc12,-23.1,0.0,1.4%,2.0,-2.2,-23.6
COc1ccccc1NC(=O)CN1CCCN(S(=O)(=O)c2ccc(Br)cc2)CC1,.,-0.3,0.1%,-10.1,.,.
CC1CC(C)CN(C(=O)CN2C(=O)NC(C)(C)C2=O)C1 (configuration not stated),0.1,0.4,7.8%,-3.7,-1.2,3.4
CN(C)S(=O)(=O)c1ccc2c(c1)N(CC(=O)N1CCCCC1)CCS2,.,1.2,8.6%,7.8,.,.
Cc1nc2oc(C(=O)c3ccc(Br)cc3)c(N)c2c2c1COC(C)(C)C2,-4.0,-0.6,?,1.1,-5.0,11.4
Cc1c(C(=O)O)sc(S(=O)(=O)N2CCN(C(=O)Cc3ccc(Cl)cc3)CC2)c1C(=O)O,1.5,3.9,0.6%,7.5,-0.5,-2.8

Taken from above:
In CtBP-E1A inh, CC(C=NNC(=O)C(=O)NN=CC(C)=Cc1ccccc1)=Cc1ccccc1 has the entry -4.7
In TRPML1 inh, Cc1c(C(=O)O)sc(S(=O)(=O)N2CCN(C(=O)Cc3ccc(Cl)cc3)CC2)c1C(=O)O has the entry 7.5
In PINK1 modulator, COc1ccccc1NC(=O)CN1CCCN(S(=O)(=O)c2ccc(Br)cc2)CC1 has the entry 0.1%
In Six1-Eya2 inh, CS(=O)(=O)N1CCN(C(=O)NC2CCCCC2)CC1 has the entry -0.2

The results go on.
molecule,CtBP-E1A inh,TRPML1 agonist,PINK1 modulator,TRPML1 inh,D2 agonist,Six1-Eya2 inh
CCCCOc1ccc(NC(=O)CSc2ccc(C(=O)O)cn2)cc1,.,0.2,1.3%,14.4,.,.
O=C(NCCN1CCOCC1)c1cccc(S(=O)(=O)Nc2cc(Cl)ccc2Cl)c1,1.1,0.0,4.7%,-17.1,2.8,-0.7
Cc1cc(=O)n(C)c(=O)n1CCCCOc1cccc([N+](=O)[O-])c1,0.6,5.8,-2.6%,28.5,-0.5,7.2
CCCCN1CC(N2CCN(Cc3cccc(C)c3)CC2)CS1(=O)=O (configuration not stated),2.3,-0.4,-0.2%,.,-4.8,1.9
CC1CCN(c2c(NCC3CCC(C(=O)Nc4ccccn4)CC3)c(=O)c2=O)CC1 (configuration not stated),-0.2,-1.0,1.0%,-5.7,-3.3,7.6
Cc1c(CCOC(=O)c2ccc(N3CCOCC3)c([N+](=O)[O-])c2)sc[n+]1CC#N,-26.9,-0.1,-4.1%,19.3,-3.9,-13.1
CC(C)(C)S(=O)(=O)c1cnc(N2CCOCC2)nc1N,3.0,0.3,3.2%,-13.4,-5.4,-2.4
CCc1cc(=O)oc2cc(OCC(=O)NC3CC(C)(C)NC(C)(C)C3)ccc12,1.2,-0.4,-1.6%,16.7,-1.6,-2.5
CCOC(=O)C1=C(N)n2c(s/c(=C\c3cccs3)c2=O)=C(C(=O)OCC)C1c1cccs1 (configuration not stated),-1.9,-0.2,9.4%,21.7,-3.0,-14.8

An excerpt of these results, with two lines to a compound.
Results follow in this order: CtBP-E1A inh, TRPML1 agonist, PINK1 modulator, TRPML1 inh, D2 agonist, Six1-Eya2 inh
- CC1CCN(c2c(NCC3CCC(C(=O)Nc4ccccn4)CC3)c(=O)c2=O)CC1 (configuration not stated)
→ -0.2, -1.0, 1.0%, -5.7, -3.3, 7.6
- CCOC(=O)C1=C(N)n2c(s/c(=C\c3cccs3)c2=O)=C(C(=O)OCC)C1c1cccs1 (configuration not stated)
→ -1.9, -0.2, 9.4%, 21.7, -3.0, -14.8

Rows are unselected; overall some 1% were active at least once.
